PrP 5UTR inh: inhibition of PrP 5' UTR reporter expression; cell-based PrP 5' UTR mRNA reporter, plate reader; inhibition, % (no concentration beside the values); hit rate 0.35% among 340,000;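 active = every replicate at 50% or more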;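 also: 0 = median of the neutral control wells; tested in H4 reporter cells; numbers are from one replicate; inactives centre near -14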
Mtb hypoxia inh: PubChem AID 1159583; M. tuberculosis hypoxia-regulated fluorescent reporter, fluorescence; fluorescence inhibition, % (no concentration beside the values); hit rate 0.1% among 300,000;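 active = 35 to 45% if threefold the growth effect, above 45% if 1.5-fold the growth effect; inactive = the rest, general growth blockers included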;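 also: wells of about 50 µL received 100 nL stock; 0% = vehicle wells and 100% = reference inhibitor wells; whole bacteria with a GFP reporter of the hypoxia response; strong numbers were not always called active; many hits fall short of the cut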
Autofluor counter: compound fluorescence in toxin protease inhibitor counterscreen | AID 624483 | fluorescence intensity (concentration not given with the values) | hit rate 3.1% among 360,000 | compound autofluorescence counterscreen, microsphere flow cytometry; stronger effect = higher value;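 active = at least 3 SD above the mean of all compounds, about 16000 in these data; inconclusive = too few beads counted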;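 also: 100 nL of 1 mM stock went into each well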
Sa RN4220 lethal: growth inhibition of S. aureus RN4220, primary screen, OD600 | 16 h | inhibition, % (no concentration beside the values) | hit rate 0.33% among 330,000;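 active = z-score of -3 or lower and OD600 up to 0.18 on both plates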;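 also: plate controls were untreated cells for no effect and reference antibiotic for full effect; stock transfer was 100 nL into about 80 µL; one replicate is shown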
BJeLR viability: MLPCN primary cell-based screen for lethality selective to Ras in HRASV12 cells; BJeLR (HRASV12) viability, CellTiter-Glo ATP luminescence, 48 h; reference of the scale not given here; inhibition, % (concentration not given with the values); hit rate 0.17% among 300,000; AID 1554, 2009;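 active = replicate mean above 50%; inconclusive = above 50% but judged a plate artefact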;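 also: 50 nL library stock added to about 25 µL; numbers are from one replicate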
Sa ugtP lethal: growth inhibition of ugtP-null S. aureus, primary screen, RN4220 ugtP deletion, OD600. 16 h; some inactives read as strong as hits. hit rate 0.54% among 330,000. AID 1259309, 2017. growth inhibition, % (test concentration not listed);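 active = z-score under -3 and OD600 up to 0.15 on both plates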;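 also: plate controls were untreated wells for no effect and antibiotic for full effect; wells of about 80 µL received 100 nL stock; the first replicate is given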
Mtb hypoxia inh growth: second read-out of Mtb hypoxia inh, no call of its own (marks repeat the call); growth inhibition, %; measured here: M. tuberculosis growth (absorbance);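 0% = vehicle and 100% = reference antibiotic; read after six days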
* marks the source's active call; other numbers are inactive results; ? = inconclusive; nt = not tested or not shown. Hits appear at their usual frequency. Share with any hit: about 4%.

Order of results – PrP 5UTR inh, BJeLR viability, Autofluor counter, Mtb hypoxia inh, Sa RN4220 lethal, Sa ugtP lethal, Mtb hypoxia inh growth
#1 COc1ccc(-c2nn(-c3ccccc3)cc2/C=N/Nc2ccccn2)cc1OC
  -27, -1, 7929, nt, nt, nt, nt
#2 CCOC(=O)C1=C(CC)Nc2ccccc2N/C1=N\S(=O)(=O)c1cc(Br)ccc1Br
  -27, 11, 4543, -5, 22, 6, -3
#3 NC(=O)C1(N2CCCCC2)CCN(S(=O)(=O)c2cc(Cl)sc2Cl)CC1
  nt, -11, nt, 8, 11, 4, 17
#4 O=C(c1ccc(C(F)(F)F)cc1)C1CCCN(C(=O)Cn2cncn2)C1 (stereo not given)
  -9, 0, 5379, 0, -1.8, 3, 2
#5 COC(=O)[C@]1(C)N[C@H](CN(C)C(=O)Nc2ccc(Cl)cc2)[C@@H]2C(=O)N(Cc3ccccc3)C(=O)[C@@H]21
  -26, nt, 4225, -3, 5.5, 12, -5
#6 c1csc(CNCCN2CCOCC2)c1
  -11, -1, 16263*, 6, -1.0, 4, -2
#7 COC(=O)c1c(-c2ccc(F)cc2)csc1NC(=O)C1CCCO1 (stereo not given)
  -33, 2, 3317, 8, 3.8, 6, 2
#8 Brc1ccccc1/C=N/N1CCCCC1
  -11, 1, 4199, nt, nt, nt, nt
#9 Cc1c(CN2CCN(CC(C)(C)C)C(CCO)C2)[nH]c2ccccc12 (stereo not given)
  -17, -2, 3773, 6, 1.7, 2, 3
#10 COc1ccc2cc1Oc1ccc(cc1)C[C@H]1c3c(cc4c(c3Oc3cc5c(cc3OC)CCN(C)[C@@H]5C2)OCO4)CCN1C
  -9, 35, 5465, nt, nt, nt, nt
#11 COc1cccc(-c2nnc3sc(-c4ccccc4)nn23)c1
  -27, -1, 20646*, 6, 21, -14, 3
#12 COCCCNC(=O)COC(=O)c1ccc(-c2nc3ccccc3s2)s1
  -64, 14, 4380, 8, 2.2, -3, 2
#13 CCC(C)c1ccc(NC(=S)NCCn2cc(Cl)cn2)cc1 (stereo not given)
  -25, 4, 5112, 14, 8.4, -3, 12
#14 CCN1CCN(c2ccc(S(=O)(=O)N3CCOCC3)cc2NC(=O)c2sccc2C)CC1
  3, 9, 5858, 2, -1.5, 5, -6
#15 CC(C)Cn1c(SCC(=O)NC(=O)NC2CCCC2)nc2ccccc21
  -8, -6, 10758, 15, 6.4, -31, 8
#16 Cc1cc(C)nc(Nc2ccc(C(=O)O)cc2)n1
  -122, -6, 11306, 13, 4.3, 9, 6
#17 CCCN1CCN(C(=O)c2ccccc2-c2nc3ccccc3s2)CC1
  -14, 1, 3359, 7, 6.9, 16, 2
#18 CC(C)C(CCNC1CCN(C)CC1)c1ccc(Cl)cc1 (stereo not given)
  -18, 3, 4082, 12, 0.6, 4, 6
#19 O=C(O)COCC(=O)Nc1ccc(-n2nc(C(F)(F)F)cc2-c2cccs2)cc1
  -12, -12, 5995, 13, 0.0, 6, 2
#20 C=CCNS(=O)(=O)c1ccc(N2C(=O)c3ccccc3C2=O)cc1
  -18, -2, 3920, 3, 1.2, -3, 4
#21 CCC(C)NC(=O)COC(=O)c1csc2c1CCCC2 (stereo not given)
  -24, -9, 2030, -8, -3.4, -6, 0
#22 Cc1ccc(S(=O)(=O)c2cccc(S(=O)(=O)N3CCOCC3)c2)cc1S(=O)(=O)N1CCOCC1
  -7, -12, 4255, -2, -0.7, -2, 0
#23 O=C(COc1cccc(Br)c1)Nc1ccc(N2CCOCC2)cc1N1CCOCC1
  -13, nt, 7842, 8, 2.9, -1, 2
#24 CC(=NNS(=O)(=O)c1cccc([N+](=O)[O-])c1)c1ccc2c(c1)OCO2
  nt, nt, nt, 3, 9.9, 7, -4
#25 O=C(CCCC(=O)N/N=C/c1ccccc1C(=O)O)N/N=C/c1ccccc1C(=O)O
  -15, 8, 4079, nt, nt, nt, nt
#26 COc1ccc(/C(O)=C2\C(=O)C(=O)N(Cc3ccco3)C2c2ccc(OC)cc2OC)cc1 (stereo not given)
  -2, 2, 2900, 0, 5.3, 8, 2
#27 Cc1nc2cc(N3CCN(C)CC3)c(NC(=O)Cc3ccccc3)cc2c(=O)n1Cc1ccccc1
  -18, 5, 4852, -7, 2.2, 3, 23
#28 CCOc1ccccc1C(=O)NCC(=O)N(C)Cc1ccccc1C
  -18, -2, 3984, 11, 3.6, 1, 4
#29 CCc1nc(Nc2ccc(OC)c(OC)c2)c2nnn(Cc3ccccc3Cl)c2n1
  -9, 7, 3363, 13, -10, -1, 7
#30 Cc1cccc(NC(=O)c2cccs2)n1
  -41, -2, 2792, nt, 3.3, -4, nt
#31 CCOC(=O)N1CCN(CC(O)COCCC23CC4CC(CC(C4)C2)C3)CC1 (stereo not given)
  -2, -3, 2488, nt, 6.9, -1, nt
#32 CCCc1nnc(NC(=O)C2CCN(C(=O)c3ccco3)CC2)s1
  -1, 1, 3688, 1, -1.7, 3, 8
#33 Cc1ccc(CCNC(=O)c2ccc(CS(=O)(=O)c3ccccc3C)o2)cc1
  1, 4, 6436, 4, 1.2, 1, 7
#34 CC(=O)Nc1ccc(S(=O)(=O)N=S(C)(C)=O)cc1
  -21, 5, 2108, 5, 3.1, 5, 1
#35 CC(C)CNC(=O)c1ccccc1NC(=O)Nc1ccccc1
  -17, -3, 5033, 1, 3.6, 1, 0
#36 CC(C)c1csc2nc3n(c(=O)c12)CCCCC3
  -23, -12, 4369, 7, 47, 3, 6
#37 COc1cccc(C(=O)OCC(=O)NCCNC(=O)COC(=O)c2cccc(OC)c2OC)c1OC
  10, -4, 5521, 2, 0.2, 2, 8
#38 Cc1ccc(NC(=O)CCN2CCC(C(N)=O)CC2)cc1
  4, -9, 4580, -1, 2.1, 2, 5
#39 CCOc1cc(/C=N/n2c(C)nc3ccccc3c2=O)ccc1O
  -26, -19, 3976, nt, nt, nt, nt
#40 Cc1ccc(OCC(=O)Nc2ccc(S(=O)(=O)N3CCOCC3)cc2)c(Br)c1
  2, 1, 4653, 11, -3.4, 8, -2

Entries of single compounds as entered above. Order of values: PrP 5UTR inh, BJeLR viability, Autofluor counter, Mtb hypoxia inh, Sa RN4220 lethal, Sa ugtP lethal, Mtb hypoxia inh growth
Results for CCCc1nnc(NC(=O)C2CCN(C(=O)c3ccco3)CC2)s1 : -1, 1, 3688, 1, -1.7, 3, 8
Results for CC(=NNS(=O)(=O)c1cccc([N+](=O)[O-])c1)c1ccc2c(c1)OCO2 : nt, nt, nt, 3, 9.9, 7, -4
Results for Cc1nc2cc(N3CCN(C)CC3)c(NC(=O)Cc3ccccc3)cc2c(=O)n1Cc1ccccc1 : -18, 5, 4852, -7, 2.2, 3, 23

Next results follow:
Order of results – PrP 5UTR inh, BJeLR viability, Autofluor counter, Mtb hypoxia inh, Sa RN4220 lethal, Sa ugtP lethal, Mtb hypoxia inh growth
#41 O=S1(=O)c2ccccc2C(O)(c2ccccc2)c2ccccc21
  -6, nt, 3412, 19, 3.6, -3, 13
#42 COc1ccc(C2=NS(=O)(=O)N(C)C(C(=O)NCc3ccccc3)=C2)cc1OC
  -10, 5, 5233, 4, 3.3, -8, 0
#43 O=C(NN=Cc1ccncc1)c1cc([N+](=O)[O-])cc([N+](=O)[O-])c1
  nt, nt, nt, 7, -2.6, 4, 4
#44 CCCCNC(=O)[C@]1(C)CCC[C@@]2(C)C3CC[C@@]4(C)C[C@]3(CCC21)CC4=O (stereo not given in full)
  -21, nt, 3967, 14, 9.4, 5, 8
#45 CC1CCCC(NC(=O)/C=C/c2c(F)cccc2Cl)C1C (stereo not given)
  -31, -17, 4080, 10, 1.8, -3, 26
#46 C/C(=N\NC(=O)c1cccnc1)c1cc(C)oc1C
  12, -11, 7331, nt, nt, nt, nt
#47 CC(=O)N1C(=O)C2(C(C#N)=C(N)Oc3n[nH]c(-c4ccccn4)c32)c2ccccc21 (stereo not given)
  -12, -4, ?, nt, 14, -11, nt
#48 Cc1cccc(C(=O)OCC(=O)c2c(N)n(CC(C)C)c(=O)n(C)c2=O)c1O
  -5, 6, ?, 5, -0.8, -1, 3
#49 O=C(COc1ccc(Cl)cc1)Nc1c(-c2cccs2)nc2ccccn12
  -9, -13, 2102, 17, 14, 23, 5
#50 CCCCC1=CC2=CC(=O)C(C)(OC(=O)CC)C(=O)C2=CN1CCOC (stereo not given)
  -7, 4, 4238, 13, 3.5, -7, 12
#51 CSc1nnc(-c2ccncc2)n1N=Cc1cn(-c2ccccc2)nc1-c1ccc(Cl)cc1
  nt, nt, nt, 6, 11, -19, -4
#52 CCc1ccc(S(=O)(=O)NCc2cccs2)cc1
  -12, -8, 5482, nt, nt, nt, nt
#53 C=CCN1C(=O)NC(=O)/C(=C/c2cc3c4c(c2)CCCN4CCC3)C1=O
  -5, -1, 2523, 9, 3.1, 1, 5
#54 CCn1c(CCC(=O)Nc2nc3c(s2)CCCC3)nc2cc(S(=O)(=O)N(C)C)ccc21
  -24, -8, 3671, 8, 6.7, -2, 12
#55 Cc1ccccc1C(=O)NCc1nnc(SCC(=O)N2c3ccccc3Sc3ccccc32)n1C
  2, 3, 4291, 10, -0.9, 7, 13
#56 O=S(=O)(c1ccc2nc(N3CCN(c4ccc(F)cc4)CC3)ccc2c1)N1CCCCC1
  -9, 1, 5261, -4, 1.4, 0, 4
#57 Cc1nnc(SCC(=O)Nc2cccc(S(=O)(=O)NC3=NCCCCC3)c2)n1Cc1ccccc1
  -41, 10, 4298, 0, 0.8, 2, 9
#58 O=C(CCl)Nc1cc(SCC(O)CO)cc([N+](=O)[O-])c1 (stereo not given)
  14, 81*, 2016, -2, 1.3, 5, 4
#59 Cc1sc(-c2ccccn2)nc1OC(=O)c1ccc(Cl)cc1
  -24, 2, 9855, 18, 3.0, -8, 2
#60 CCC1(c2ccccc2)NC(=O)N(CC(=O)Nc2cccnc2Cl)C1=O (stereo not given)
  -21, nt, 6047, 1, 4.0, 12, 1
#61 O=S1(=O)C=C(N2CCOCC2)c2ccccc21
  -25, -4, 5289, 4, 2.7, 4, 6
#62 CCN(C(=O)Cc1c(C(=O)O)n(C)c2ccccc12)c1cc(OC)ccc1OC
  -7, 2, 3868, 7, 8.5, 1, 9
#63 O=C(Nc1cccc(Cl)c1)Nc1nnc(-c2ccccc2)o1
  -19, -3, 9516, -7, 34, -22, -6
#64 COc1cc(CN2CCN(c3cccc(C)c3C)CC2)cc(Br)c1O
  0, 1, 23780*, 19, 3.8, -4, 8
#65 COC(=O)NC1CSCC1OC(=O)CCN1C(=O)c2ccccc2C1=O (stereo not given)
  -8, -10, 3753, nt, 2.5, 2, nt
#66 O=c1cc(N2CCc3ccccc32)[nH]c(=O)n1-c1ccccc1Cl
  -25, nt, 2683, 8, 4.5, 11, -3
#67 COC(=O)CSc1ncnc2c1sc1nc(N3CCOCC3)c3c(c12)CCCC3
  -5, 13, 4289, nt, 1.0, 6, nt
#68 O=C(Nc1cccc(Cl)c1)c1cc(S(=O)(=O)N2CCOCC2)cs1
  -1, -5, 5416, 2, -2.2, -2, 7
#69 CC(=O)Nc1c2c(nn1-c1cccc(C)c1)CSC2
  -18, 0, 5827, 3, 0.0, -2, 2
#70 O=C(NCc1ccc(F)cc1)c1cc(-c2cccs2)on1
  nt, 0, 10320, 4, -1.9, -3, 1
#71 CCN(CC(=O)Nc1ccccc1C(F)(F)F)C(=O)Cc1ccc2c(c1)CCC2
  nt, nt, 5596, 11, 10, 2, 8
#72 CC(=NNC(=O)c1cc(C)oc1C)c1ccc(N2CCOCC2)cc1
  nt, nt, nt, -6, 1.3, 3, -4
#73 CCCCCC1CCC(c2nnc(SCC(C)=O)o2)CC1 (stereo not given)
  -110, -1, 4331, nt, nt, nt, nt
#74 CCOc1ccc(-n2ccnc2SCC(=O)NCc2ccc3c(c2)OCO3)cc1
  -10, -6, 3879, nt, 4.8, 3, nt

Screens: PubChem, several laboratories
